Compound activity as filed in PubChem.
Cruzain noTriton – inhibitors of Trypanosoma cruzi cruzain without detergent. P25779. purified cruzain, Z-FR-AMC fluorescence, no detergent. Potency, µM, without a hit: max response, negative = inhibition, actives largely listed as inhibitors. 200,000 compounds, 2.3% hits;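 further: plate controls were enzyme without inhibitor for no effect and buffer without enzyme for full effect; nearly all actives have a fitted effect of over 40% in size; top concentration of the series not given in the record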
Target sequence (P25779 123-467 limits assumed): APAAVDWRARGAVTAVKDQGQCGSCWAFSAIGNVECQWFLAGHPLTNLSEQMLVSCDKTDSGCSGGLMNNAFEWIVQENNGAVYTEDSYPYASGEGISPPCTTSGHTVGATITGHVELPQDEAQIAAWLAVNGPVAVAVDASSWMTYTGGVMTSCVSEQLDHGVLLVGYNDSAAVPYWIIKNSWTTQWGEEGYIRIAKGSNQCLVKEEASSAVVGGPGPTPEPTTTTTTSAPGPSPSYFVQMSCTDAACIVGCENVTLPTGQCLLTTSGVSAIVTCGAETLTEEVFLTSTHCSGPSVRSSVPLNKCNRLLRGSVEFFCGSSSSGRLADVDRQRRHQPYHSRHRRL
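Detergent-free condition (0.00005% Triton X-100) in acetate buffer pH 5.5 with DTT. 1.5 nM enzyme and compound were pre-mixed 15 min, then 2 uM Z-FR-AMC substrate added; reaction progress from fluorescence change between first and third reads (60 s).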
MARV entry inh – blocks Marburg virus binding to or entry into cells; Marburg virus pseudotyped entry inhibition, cell reporter; control for the full effect not named in the record; about a third of the inactives were read at about 46 µM; Potency, µM (titrated, usually from 37.8 µM), for the others: top-dose activity change, negative = inhibition, hits mostly inhibitors; 300,000 compounds, 1.8% hits; AID 540276; active = well fitted inhibition curve with a large enough effect; inconclusive = small, poorly fitted or top-dose-only effect, or effect the other way; inactive = flat fitted curve, though single readings scatter; tested in HEK293 cells; about a fifth of its hits are not listed in these tables; further: on the % scale 0 is the no-effect control and ±100 the full control effect; luciferase read-out
StopGo reporter – lowers the luciferase signal of an FMDV 2A StopGo reporter. human cells with a luciferase reporter of 2A StopGo recoding; control for the full effect not named in the record. 410,000 compounds, 1.2% hits. AID 1159524. Potency, µM (doses to about 57.9 µM), inactives show at the top dose signal change, negative = less light; active = well fitted falling curve with a large enough effect; inconclusive = small, poorly fitted or top-dose-only effect; inactive = no such curve, though single readings can be large or run the other way; tested in HEK293T cells; further: on the % scale 0 is the no-effect control and ±100 the full control effect; nearly all actives have a fitted effect of over 45% in size; luciferase light after 4 h
NS1 function inh – influenza NS1 inhibition. 270,000 compounds, 0.4% hits. S. cerevisiae slowed by influenza A NS1, growth recovery by OD600. Potency, µM (titrated, usually from 46.1 µM), inactives show top-dose activity, positive = more growth. AID 2326; active means well fitted rising curve with a large enough effect; inconclusive means small, poorly fitted or top-dose-only effect; inactive means no such curve, though single readings can be large or run the other way; further: nearly all actives have a fitted effect of over 50% in size
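S. cerevisiae expressing influenza A NS1, grown in glucose, washed, then diluted 1:100 into pH 6.0 -URA galactose medium with 23 nl compound. Growth recovery read as OD600; NS1-free strain serves as control.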
SARS PLpro yeast – blocks SARS-CoV papain-like protease in a yeast assay. 330,000 compounds, 0.19% hits. S. cerevisiae expressing SARS-CoV PLpro, growth rescue; control for the full effect not named in the record. Potency, µM (highest dose often 32.9 µM), for inactives: at the top dose activity, positive = growth rescue. AID 485353; active means well fitted rising curve with a large enough effect; inconclusive means small, poorly fitted or top-dose-only effect; inactive means no such curve, though single readings can be large or run the other way; further: 0% is about no effect; nearly all actives have a fitted effect of over 55% in size; growth read by luminescence after 48 h
LASV entry inh – blocks Lassa virus binding to or entry into cells; Potency, µM (doses to about 37.9 µM), inactives show at the top dose activity change, negative = inhibition, most hits filed as inhibitors; Lassa virus pseudotype entry inhibition, cell reporter; control for the full effect not named in the record; 300,000 compounds, 1.2% hits; active means well fitted inhibition curve with a large enough effect; inconclusive means small, poorly fitted or top-dose-only effect, or effect the other way; inactive means flat fitted curve, though single readings scatter; tested in HEK293 cells; further: on the % scale 0 is the no-effect control and ±100 the full control effect; nearly all actives have a fitted effect of over 50% in size; luciferase read-out
RE007 growth inh – less growth of the S. pombe RE007 Vpr strain | 360,000 compounds, 0.21% hits | AID 651644 | S. pombe RE007 Vpr strain, BacTiter-Glo ATP luminescence, 24 h; control for the full effect not named in the record | Potency, µM (highest dose often 92.2 µM), for the others: at the top dose activity change, negative = less growth; active = well fitted falling curve with a large enough effect; inconclusive = small, poorly fitted or top-dose-only effect; inactive = no such curve, though single readings can be large or run the other way;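 further: on the % scale 0 is the no-effect control and ±100 the full control effect; nearly all actives have a fitted effect of over 50% in size; the assay follows cell death caused by Vpr and the record does not say whether a fall means rescue or toxicity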
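Fission yeast strain RE007, carrying one chromosomally integrated HIV-1 vpr copy, was seeded at OD 0.01 in PMG+AL medium with 23 nL pinned compound. After 24 h at 30 °C and 99% humidity, viability was read by BacTiter-Glo luminescence.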
Cruzain Triton – cruzain (T. cruzi) inhibition with detergent | purified cruzain, Z-FR-AMC fluorescence, 0.01% Triton | Potency, µM, inactives show max response, negative = inhibition, actives largely listed as inhibitors | 200,000 compounds, 0.43% hits | AID 1478;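 further: plate controls were neutral wells for no effect and buffer without enzyme for full effect; nearly all actives have a fitted effect of over 40% in size; top concentration of the series not given in the record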
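Cysteine protease activity tested under reducing, mildly acidic conditions (100 mM sodium acetate pH 5.5, 5 mM DTT) plus 0.01% Triton X-100. Cruzain 1.5 nM; substrate Z-FR-AMC 2 uM; 15 min compound preincubation at room temperature.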
* marks the source's active call; other numbers are inactive results; ? = inconclusive; . = not tested or not shown; [ ] = another dose, or the depositor's remark. Unless noted, the call rests on the fitted dose curve; in most records, active means well fitted curve in the direction sought with a large enough effect; inconclusive means small, poorly fitted or top-dose-only effect, or another doubt; inactive means no such curve, though single readings can be large; an effect the other way counts as inactive or inconclusive. Potency means the concentration at half of the fitted maximal effect.

The first six compounds, ahead of the listing:
entry	SMILES	Cruzain Triton	SARS PLpro yeast	RE007 growth inh	NS1 function inh	LASV entry inh	MARV entry inh	Cruzain noTriton	StopGo reporter
1	CCc1ccc(-c2cn3c(n2)sc2cc(C(=O)NC4CCCCCC4)ccc23)cc1	-3.7%	.	.	.	-0.8%[46.1 µM]	.	-2.4%	20.8%
2	CCC(C)c1ccccc1NC(=O)c1cc(C)no1 (stereo unspecified)	.	-0.5%	-5.7%	-4.0%	11.5%[46.1 µM]	9.7%[46.1 µM]	.	16.4%
3	O=C1Nc2ccccc2N(O)N1c1cc(-c2ccccc2Cl)no1	2.2%	2.9%	7.1%	4.5%	?	?	-5.4%	-11.3%
4	CC(C)c1ccc(NC(=S)NCCc2c[nH]c3ccccc23)cc1	-11.6%	-107.7%	30.6%	-22.3%	?	3.5%	-0.3%	7.2%
5	CC(=O)N(C)C1=C(O)c2ccccc2C(=O)C1=O	-4.0%	-0.8%	2.2%	-2.1%	-0.3%	-0.7%	-4.8%	9.2%
6	CCOC(=O)c1c(SCCN2CCCC2)n(-c2ccccc2)c(=S)n(-c2ccccc2)c1=O	.	.	6.5%	.	?	?	.	20µM*

All compounds of this part, previewed entries included:
entry	SMILES	Cruzain Triton	SARS PLpro yeast	RE007 growth inh	NS1 function inh	LASV entry inh	MARV entry inh	Cruzain noTriton	StopGo reporter
1	CCc1ccc(-c2cn3c(n2)sc2cc(C(=O)NC4CCCCCC4)ccc23)cc1	-3.7%	.	.	.	-0.8%[46.1 µM]	.	-2.4%	20.8%
2	CCC(C)c1ccccc1NC(=O)c1cc(C)no1 (stereo unspecified)	.	-0.5%	-5.7%	-4.0%	11.5%[46.1 µM]	9.7%[46.1 µM]	.	16.4%
3	O=C1Nc2ccccc2N(O)N1c1cc(-c2ccccc2Cl)no1	2.2%	2.9%	7.1%	4.5%	?	?	-5.4%	-11.3%
4	CC(C)c1ccc(NC(=S)NCCc2c[nH]c3ccccc23)cc1	-11.6%	-107.7%	30.6%	-22.3%	?	3.5%	-0.3%	7.2%
5	CC(=O)N(C)C1=C(O)c2ccccc2C(=O)C1=O	-4.0%	-0.8%	2.2%	-2.1%	-0.3%	-0.7%	-4.8%	9.2%
6	CCOC(=O)c1c(SCCN2CCCC2)n(-c2ccccc2)c(=S)n(-c2ccccc2)c1=O	.	.	6.5%	.	?	?	.	20µM*
7	CCCCCCN(C(=O)CCCCCN1C(=O)NC(c2ccc(-c3ccccc3)cc2)C(C(=O)OCc2ccccc2)=C1C)C(C(=O)NCCCC)c1ccccn1 (stereo unspecified)	-4.9%	-0.1%	.	-13.4%	.	.	0.7%	.
8	CCCNC(=S)Nc1ccc(S(N)(=O)=O)cc1	.	0.4%	0.0%	-0.4%	7.6%	14.2%[46.1 µM]	.	-6.6%
9	O=C(c1ccc(-n2cncn2)c([N+](=O)[O-])c1)N1CCN(S(=O)(=O)c2ccccc2F)CC1	.	-3.5%	-8.2%	.	?	?	.	-2.3%
10	Cc1ccc2nc(NC(=O)c3ccccn3)sc2c1	.	15.0%	?	.	.	?	.	8.91µM*
11	O=C(NC1CCCCC1)C1CCN(S(=O)(=O)c2cccc3cccnc23)CC1	-2.0%	-4.2%	-4.4%	-7.4%	.	.	-7.8%	-26.2%
12	CN(CC(=O)Nn1cnnc1)S(=O)(=O)c1cc(Cl)ccc1Cl	2.3%	4.6%	-5.5%	-0.7%	6.2%	0.2%	-7.9%	-3.5%
13	CCn1cc(C(=O)NCCCN2CCCC(C)C2)c(=O)c2cc(S(=O)(=O)N3CCOCC3)ccc21 (stereo unspecified)	.	19.5%	-4.1%	21.1%	-1.6%[46.1 µM]	5.0%[46.1 µM]	.	2.1%
14	CCC(Sc1nc2cc3c(cc2c(=O)n1CCCCCC(=O)NCc1ccc2c(c1)OCO2)OCO3)C(=O)NCCCOC (stereo unspecified)	3.9%	.	.	.	4.0%[46.1 µM]	.	13.7%	7.7%
15	CCCC(NC(=O)c1ccccc1)c1nc2ccccc2n1Cc1ccc(C(=O)OC)o1 (stereo unspecified)	1.2%	-1.6%	15.0%	-1.6%	-4.4%	?	-8.0%	-23.5%
16	Cc1cccc(OCc2n[nH]c(=S)n2C2CCCCC2)c1	-12.5%	3.9%	0.8%	-16.7%	-29.9%	?	-17.0%	.
17	CCOC(=O)C1(CCc2ccccc2)CCN(C(=O)Cc2nonc2C)CC1	.	-0.3%	2.3%	-9.4%	-23.9%	?	.	51.9%[activator]
18	Cc1ccc(NC2c3ncccc3C(=O)N2Cc2ccc(F)cc2)cc1 (stereo unspecified)	-7.7%	-8.4%	-0.4%	-10.4%	18.8%	4.2%	-4.4%	7.7%
19	O=c1c2oc3ccccc3c2[nH]c(=S)n1-c1ccccc1	-11.0%	-7.4%	.	7.6%	-4.7%	-1.0%	-7.8%	5.9%
20	CCSc1ncc(Cl)c(C(=O)Nc2ccccc2C)n1	.	0.2%	-4.4%	-0.9%	.	.	.	-3.8%
21	CCOC(=O)c1c(C)[nH]c(-c2csc(N)n2)c1C	.	1.0%	-24.5%	.	?	?	.	48.9%[activator]
22	CC(C)(C)C(=O)Cn1c(=O)n(-c2ccccc2)c(=O)c2c3c(sc21)CCC3	-5.1%	.	.	.	23.3%[46.1 µM]	?	-9.0%	0.0%
23	O=c1c2cccnc2n(-c2ccccc2)n1Cc1c(Cl)cccc1Cl	.	1.1%	2.0%	.	3.0%	?	.	-7.5%
24	O=C(Nc1ccc(Cl)cc1)Nc1nnc(CSCc2ccccc2Cl)s1	-1.3%	-6.2%	-17.2%	2.9%	.	.	6.31µM*	?
25	CCCCOC(=O)C1=C(N)OC2=C(C(=O)CC(C)(C)C2)[C@]12C(=O)N(C)c1ccccc12	-2.0%	0.2%	-0.2%	-5.9%	3.0%	21.0%	?	-19.3%
26	O=c1c2ccccc2nc2n1CC/C2=C\c1ccccc1[N+](=O)[O-]	2.6%	-6.1%	.	-7.0%	.	2.4%	6.1%	.
27	O=C(CSc1ccccn1)Nc1ccc(NC(=O)CSc2ccccn2)cc1	.	-0.6%	?	1.2%	.	.	.	-12.9%
28	CCCc1cc(C(=O)Cc2ccccn2)c(O)cc1O	.	0.2%	-3.8%	8.7%	.	.	.	-28.6%
29	O=C(CN1C(=O)c2ccccc2Sc2ncccc21)Nc1cccc(C(F)(F)F)c1	-9.3%	.	.	.	7.7%[46.1 µM]	.	2.7%	-25.9%
30	Cc1ccc(Sc2cnc(N)nc2C)cc1	.	0.3%	-2.7%	.	10.0%	4.3%[46.1 µM]	.	-9.5%
31	COc1cc(C(=O)NC2CCN(Cc3nnnn3Cc3ccc(F)cc3)CC2)cc(OC)c1OC	.	-0.6%	-7.6%	-1.9%	0.6%	4.3%[46.1 µM]	.	-15.3%
32	COc1ccc(OC)c(-c2nc(C(=O)NCCCN3CCOCC3)cc3c2[nH]c2ccccc23)c1	.	?	-6.0%	-20.5%	.	.	.	-23.3%
33	CN(C)c1nc(N/N=C\c2ccc(Cl)c([N+](=O)[O-])c2)nc(Nc2ccc(F)cc2)n1	.	.	12.2%	.	1.2%	?	.	?
34	Fc1ccc(N/N=C2/CCSc3sccc32)c(F)c1	.	0.4%	1.2%	-3.0%	?	12.8%	.	21.6%
35	Nc1nc2c(nc(SCc3ccccc3Br)n2C2OC(CO)C(O)C2O)c(=O)[nH]1 (stereo unspecified)	.	2.0%	0.2%	-4.1%	1.1%	16.9%[46.1 µM]	.	-10.6%
36	CCCCn1c(=O)c(-[n+]2ccccc2)c([O-])c2ccccc21	1.2%	-5.4%	5.5%	-0.3%	-5.8%	25.8%	-9.2%	-12.3%
37	C=CCNC(=S)/N=c1/scc(C)n1C	-7.9%	19.4%	-22.0%	-1.4%	?	?	-15.5%	32.2%[activator]
38	COc1ccc(-c2cc(C(C)=O)c(C)n2CCC(=O)Nc2ccc(C)cc2Cl)cc1	-0.9%	.	.	.	-1.2%[46.1 µM]	.	1.0%	-15.0%
39	Cc1c(S(=O)(=O)c2ccccn2)c(N)n(Cc2cccc(Cl)c2)c1C	.	-7.9%	-4.4%	5.2%	.	.	.	18.6%
40	COC(=O)C(NNc1ccccc1)(NC(=O)c1cccc(F)c1)C(F)(F)F (stereo unspecified)	-1.8%	-31.3%	-11.0%	-23.6%	?	-10.9%	-3.7%	-16.8%
41	CCOC(=O)C1C(=O)C=C(c2ccc(NS(C)(=O)=O)cc2)CC1c1ccco1 (stereo unspecified)	-21.7%	-1.6%	-4.9%	-7.8%	1.9%	10.2%	-5.5%	.
42	CCCc1cc(=O)[nH]c(N2CCN(Cc3ccc4c(c3)OCO4)CC2)n1	.	0.7%	10.3%	4.7%	18.8%[46.1 µM]	25.5%[46.1 µM]	.	-6.7%
43	CN1CCN(c2ccc(NC(=S)NC(=O)/C=C/c3ccco3)cc2)CC1	.	4.8%	?	?	21.9%[46.1 µM]	?	.	7.6%
44	O=C(O)C(Cc1c[nH]c2ccccc12)NS(=O)(=O)c1cccc2nsnc12 (stereo unspecified)	-1.7%	-8.6%	1.1%	-4.7%	20.3%	11.0%	0.8%	-15.7%
45	C=CCNC(=O)/C(C#N)=C/c1c(C)nn(-c2ccc(Cl)cc2)c1Cl	-1.9%	-32.6%	5.4%	5.2%	?	-14.9%	15.5%	?
46	Cc1ccc(C(=O)C=Cc2cccc(C)c2)cc1	.	.	-22.5%	.	-2.2%[46.1 µM]	-2.5%[46.1 µM]	.	22.4%
47	O=C(O)c1ccc(N/N=C/c2ccc(-c3ccccc3)cc2)cc1	.	-16.0%	?	.	?	?	.	?
48	Cc1ccc(CNC(=O)c2ccc(CS(=O)(=O)Cc3ccc(C)cc3)o2)cc1	-1.1%	.	.	.	-25.7%[46.1 µM]	.	-6.1%	-21.5%
